Screens from PubChem.
Ecoli growth = E. coli growth inhibition | AID 1053175 | Escherichia coli growth, OD600, 23 h; active compounds read low | hit rate 0.21% among 330,000 | OD600 absorbance (test concentration not listed);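 active means OD600 absorbance below the run mean of sample wells minus 3.6 SD, in any replicate, cut at about 0.56 in these data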;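 further: stock transfer was 300 nL into about 60 µL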
ALR inh = blocks human ALR sulfhydryl oxidase activity; purified ALR, DTT oxidation, H2O2 HRP-luminol luminescence; inhibition, % (no concentration beside the values); hit rate 3.8% among 290,000; AID 485317;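 active means mean and each replicate at 75% or more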;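 further: stock transfer was 7.5 nL into about 7.5 µL; 0% = neutral wells and 100% = wells with inactivated enzyme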
Target sequence (P55789 whole entry, looked up): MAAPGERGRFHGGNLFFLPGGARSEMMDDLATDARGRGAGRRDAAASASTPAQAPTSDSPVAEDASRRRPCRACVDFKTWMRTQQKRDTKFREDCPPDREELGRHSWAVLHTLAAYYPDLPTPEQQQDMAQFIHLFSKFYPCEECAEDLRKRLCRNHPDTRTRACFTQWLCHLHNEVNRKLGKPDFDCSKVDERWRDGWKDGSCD
FGF22 binding = shifts melting point of recombinant human FGF22; recombinant FGF22 thermal shift, SYPRO orange fluorescence; percent of sucrose octasulfate shift, DMSO zero; calls only at 9.99 µM; AID 651658; hit rate 1.5% among 340,000;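 active means melting point raised past a set limit in the mean and every replicate; three in four hits are not shown here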
Target sequence (Q9HCT0 whole entry, looked up): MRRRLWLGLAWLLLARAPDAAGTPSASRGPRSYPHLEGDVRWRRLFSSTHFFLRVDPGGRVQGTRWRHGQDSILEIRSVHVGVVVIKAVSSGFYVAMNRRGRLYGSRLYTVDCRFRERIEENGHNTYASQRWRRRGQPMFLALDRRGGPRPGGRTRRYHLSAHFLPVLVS
HNF4A DNA FP = change in binding of human HNF4 alpha to DNA | activity change, % at 10 µM | hit rate 0.3% among 360,000 | HNF4a-FITC DNA binding, fluorescence polarization, 1 h; in the data active means activity change above about 30%, passing the limit was not always enough;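 further: controls were the assay level and a saturating level of protein; the project sought stronger binding though the title names inhibitors; some compounds called inactive have numbers as strong as hits; positive values seem to mean higher polarization but the record does not say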
rRNA inh HTS = selective bacterial rRNA inhibition in E. coli. E. coli WT GFP vs humanized-ribosome RFP mutants, fluorescence, 24 h; active compounds read low; DMSO median 0, no signal -100. GFP signal change (wild-type ribosome), % (concentration not given with the values). hit rate 1.6% among 350,000;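 active means significant combined selectivity score with lowered wild-type GFP, culture density cut under 30%, mutant RFP and density less affected; inactive means any of these conditions unmet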; further: one replicate is shown; some compounds called inactive have numbers as strong as hits
Vif A3G = HIV-1 Vif–A3G interaction blockers – biochemical, TR-FRET, GST-Vif 1-94, biotin-A3G peptide, dose response retest, primary screen (AID 1117319); TR-FRET GST-Vif / biotin-A3G peptide binding; higher % means a stronger effect; test concentration not given here; strong numbers were not always called active; inhibition, %, or IC50 in µM where a hit was titrated; hit rate 0.57% among 260,000;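 active means above the screen mean plus three standard deviations and confirmed in dose response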;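 further: Vif residues 1-94 fused to GST binding biotinylated APOBEC3G peptide 110-148; 0% = full assay without inhibitor and 100% = GST in place of GST-Vif; retest series ran down from 100 µM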
MLL AF4-AF9 inh = blocks AF4 peptide binding to human AF9; inhibition, % at 10 µM; hit rate 0.47% among 350,000; P42568; AID 651704; AlphaScreen, biotin-AF4 peptide binding to FLAG-AF9;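 active means every replicate reaching a set inhibition limit, whatever the replicate mean, cut at about 25% in these data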;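 further: 0% = plate neutral control median and 100% = total signal loss; the record names both 10 and 1 µM as test concentration; the first replicate is given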
Target sequence (P42568 whole entry, looked up): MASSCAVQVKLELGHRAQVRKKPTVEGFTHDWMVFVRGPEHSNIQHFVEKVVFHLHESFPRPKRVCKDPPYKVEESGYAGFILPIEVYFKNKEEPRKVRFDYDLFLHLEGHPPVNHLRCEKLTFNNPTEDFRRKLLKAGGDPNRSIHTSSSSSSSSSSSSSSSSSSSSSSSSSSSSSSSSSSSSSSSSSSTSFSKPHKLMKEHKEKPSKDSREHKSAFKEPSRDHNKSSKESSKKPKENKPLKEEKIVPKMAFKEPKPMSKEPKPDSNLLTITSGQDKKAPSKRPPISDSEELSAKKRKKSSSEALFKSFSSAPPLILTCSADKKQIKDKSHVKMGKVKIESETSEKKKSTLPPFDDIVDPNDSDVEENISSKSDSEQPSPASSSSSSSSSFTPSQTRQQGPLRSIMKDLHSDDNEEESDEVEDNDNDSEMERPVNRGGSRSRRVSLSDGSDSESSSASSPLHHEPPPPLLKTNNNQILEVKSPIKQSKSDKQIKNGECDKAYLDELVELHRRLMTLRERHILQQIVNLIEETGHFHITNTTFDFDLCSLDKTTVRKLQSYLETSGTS
rRNA inh HTS OD600 = recorded beside rRNA inh HTS, whose call it bears; OD600 change, %; measured here: OD600 growth;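 optical density of the mix in the first replicate; 0 = DMSO median and -100 = no signal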
rRNA inh HTS RFP = also measured in rRNA inh HTS; calls as there; RFP signal change, %; measured here: RFP humanized mutant strains;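 first replicate; 0 = DMSO median and -100 = no signal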
Starred values were filed as active, the others as inactive; i = inactive; . = not tested or not shown; + = active, no number.

SMILES	Ecoli growth	ALR inh	FGF22 binding	HNF4A DNA FP	rRNA inh HTS	rRNA inh HTS OD600	rRNA inh HTS RFP	Vif A3G	MLL AF4-AF9 inh
Cc1cn([C@H]2C[C@H](O)[C@@H](CNCc3ccccc3)O2)c(=O)[nH]c1=O	.	.	i	-7.5	9	13	-2.1	-5%	-3.3
CN(Cc1ccco1)C(=O)C1CCC(=O)N1Cc1ccc(F)cc1 (centres undefined)	0.72	-6	.	-4.5	.	.	.	-1%	.
O=C(NC1CCN(C(=O)Nc2ccccc2Cl)CC1)c1cccc(F)c1	0.68	2	i	2.2	.	.	.	.	0.9
COc1ccc(C(C)=O)cc1Cn1c(C)c(C(=O)NCC(C)C)sc1=O	.	.	i	0.2	5	15	-0.9	.	7.8
COc1ccc(S(=O)(=O)Nc2cc3c4c(c2)CCN4C(=O)CC3)cc1	0.65	4	i	-1.6	1	-7	-1.0	3%	-0.1
COc1ccc(/C=C/C(=O)Nc2ccc3nc4n(c(=O)c3c2)CCCC4)cc1OC	0.69	-11	i	-0.3	2	6	-0.5	0%	-1.6
O=C(Nc1ccc(F)cc1)Nc1ccc2c(c1)[C@@H]1C[C@H](CC(=O)N3CCOCC3)O[C@H](CO)[C@@H]1O2	.	.	i	.	-3	-4	-5.7	.	-7.5
CCOC(=O)N1CCN(C(=O)c2c[nH]c3ccc(S(=O)(=O)N(C)c4ccc(F)cc4)cc3c2=O)CC1	0.69	-4	i	-2.3	3	7	1.2	4%	1.5
CC(C)(C)N(Cc1ccccc1)C(=O)CN1C(=O)c2ccccc2S1(=O)=O	0.7	.	i	0.3	-24*	-14*	-2.3*	0%	1.3
O=C(NCC1CC1)Nc1cccc(C(F)(F)F)c1	0.63	-10	i	-1.3	-5	-21	2.9	-3%	-1.2
O=c1[nH]c2cc(Cl)cc([N+](=O)[O-])c2c2ccc(Cl)cc12	.	.	i	1.6	10	2	-1.7	0%	-1.2
O=C(Nc1ncc(Cc2cccc(Cl)c2)s1)C1=NCCN1	0.69	1	.	2.4	-7	-12	-2.9	-1%	.
COc1ccc(N(CC(=O)Nc2ccccc2F)S(=O)(=O)c2ccc(OC)c(OC)c2)cc1	0.7	-9	i	-2.3	-11	-11	1.6	.	0.2
Cc1cn(C2CCCCO2)c(=O)[nH]c1=O (centres undefined)	0.68	.	i	-2.2	12	7	0.2	49%	-0.3
O=C(Nc1ccc(Br)cc1)C1CC(c2c(F)cccc2Cl)=NO1 (centres undefined)	.	-7	i	-5.5	-3	-6	1.1	-11%	0.9
COc1ccc(-c2nc(CN(CC3CCC(=O)N3)C(C)C)c(C)o2)c(C)c1C (centres undefined)	0.66	-4	.	2.0	-19	-20	-0.4	.	0.6
O=C(/C=C/c1ccc(F)cc1)NC(=S)N1CCCCC1c1cccnc1 (centres undefined)	0.68	0	i	0.0	-2	12	-0.1	-6%	-11
CN(C)c1ccc(CNCCC(Cc2ccccc2)c2ccco2)cc1 (centres undefined)	0.61	42	i	-2.3	-49	-71	-17	13%	49*
CCCCN(C(=O)C1=NN(c2cc(C)ccc2C)C(=O)CC1)c1c(N)n(CCC)c(=O)[nH]c1=O	0.66	0	i	-2.3	.	.	.	-14%	-0.9
COc1ccc(NC(=O)c2nn(C)c3c2CS(=O)(=O)c2ccccc2-3)cc1	0.71	-1	i	0.1	2	8	1.4	.	-4.4
Cc1ccc2nc(N3CCN(C(=O)c4ccco4)CC3)c3nncn3c2c1	0.65	-5	i	-2.7	4	12	1.1	1%	-1.2
CNC[C@H]1OCc2ccccc2-c2c(n(C)c3ccccc23)C(=O)N([C@H](C)CO)C[C@H]1C	.	.	i	.	1	5	-3.7	.	-2.8
O=c1c2c(-c3ccc([N+](=O)[O-])cc3)csc2nc2n1CCCCC2	0.69	-32	i	-0.8	-18	-20	-1.5	0%	7.6
c1ccc2ccccc2c1	0.66	5	i	0.2	5	1	1.6	.	.
C[C@@H]1CN([C@H](C)CO)C(=O)c2cc(NS(=O)(=O)c3ccc(Cl)cc3)ccc2O[C@@H](C)CCCCO[C@@H]1CN(C)Cc1ccc(C(F)(F)F)cc1	.	.	i	.	1	1	-1.0	.	-1.1
CC1CCCCN1S(=O)(=O)Cc1ccccc1Cl (centres undefined)	0.73	15	i	2.6	-22	-22	-1.5	.	-1.1
Cc1ccc(S(=O)(=O)NCC[C@@H]2CC[C@@H](NC(=O)c3cccc(F)c3)[C@H](CO)O2)cc1	.	.	i	.	-1	4	-1.2	.	-2.1
COC(=O)C(NNc1ccccc1)(NC(=O)c1cccc(F)c1)C(F)(F)F (centres undefined)	0.71	57	.	-3.1	.	.	.	11%	.
CO/N=C/CC(=O)Nc1ccc(F)cc1F	.	0	i	2.8	9	9	0.3	4%	5.1
O=C1c2nc3ccccn3c2C(=O)N1Cc1ccccc1	0.7	11	i	2.0	10	4	0.7	31%	-9.5

Looked up above:
In Vif A3G, `CN(Cc1ccco1)C(=O)C1CCC(=O)N1Cc1ccc(F)cc1` (centres undefined) is entered as -1%
In MLL AF4-AF9 inh, `Cc1cn([C@H]2C[C@H](O)[C@@H](CNCc3ccccc3)O2)c(=O)[nH]c1=O` is entered as -3.3

Later entries
SMILES	Ecoli growth	ALR inh	FGF22 binding	HNF4A DNA FP	rRNA inh HTS	rRNA inh HTS OD600	rRNA inh HTS RFP	Vif A3G	MLL AF4-AF9 inh
O=C(COC(=O)c1ccc(S(=O)(=O)N2CCCCCC2)cc1)NCc1ccc(F)cc1	0.67	.	i	1.6	11	19	-0.1	-2%	-6.7
O=[N+]([O-])c1cccc(/C([O-])=C(/C(=S)Nc2ccccc2)[n+]2ccccc2)c1	0.74	2	.	4.5	.	.	.	.	.
O=C(OCCN1CCOCC1)c1cccs1	0.7	.	.	-0.9	.	.	.	-3%	4.3
CCS(=O)(=O)Nc1ccc(C2=NN(C(=O)c3ccco3)C(c3ccc(Cl)o3)C2)cc1 (centres undefined)	0.65	-1	i	2.2	.	.	.	-1%	-0.8
Cc1cccc(NC(=O)CNC(=O)c2cc(C3CC3)nn2-c2ccccc2)c1C	0.69	.	i	-1.5	-1	-5	-1.7	3%	-4.6
N#Cc1cccc(-c2ccc3c(c2)[C@@H]2[C@@H](CCN2S(=O)(=O)c2ccccc2F)[C@H](CO)N3)c1	.	.	i	.	-36	-37	25	.	-1.2
Cc1ccc(Cn2ccc(NC(=O)c3nc4ncccn4n3)n2)cc1	0.74	-9	.	0.8	.	.	.	-10%	.
CCCOc1ccc(C(C)(O)CN2CCOCC2)cc1 (centres undefined)	0.75	-3	.	-1.0	.	.	.	22%	.
Cc1ccccc1C(C(=O)NC1CCCC1)N(C(=O)CNC(=O)c1ccco1)c1cccnc1 (centres undefined)	0.68	-11	.	.	.	.	.	10%	.
O=C(c1ccc(Br)o1)N1CCN(Cc2ccc3c(c2)OCO3)CC1	0.6	-17	.	2.3	.	.	.	26%	.
C[C@@H]1CN([C@H](C)CO)C(=O)c2cccc(NC(=O)Nc3ccc(F)cc3)c2O[C@@H]1CN(C)Cc1ccncc1	.	.	i	.	-1	-1	-2.8	.	1.0
CCC(=O)Nc1ccc2c(c1)C(=O)N(C)C[C@@H](OC)[C@@H](C)CN(Cc1ccccc1F)[C@@H](C)CO2	.	.	i	.	4	2	-1.3	.	-0.4
CCc1csc(N2[C@@H](C#N)[C@H](c3ccc(-c4cccc(F)c4)cc3)[C@@H]2CO)n1	.	.	i	.	-5	-35	14	.	0.8
CO[C@H]1CN(C)C(=O)c2ccc(NC(=O)C3CCCC3)cc2OC[C@H](C)N(S(C)(=O)=O)C[C@H]1C	.	.	i	.	2	-9	-2.8	.	-0.9
C=CCOC(=O)C1C(=O)CC(C)(O)C(C(=O)OCC=C)C1c1ccc(N(C)C)cc1 (centres undefined)	0.69	18	i	-1.0	9	7	2.6	3%	1.5
Cc1ccc(C(=O)N2[C@@H]3CN(C)C(=O)[C@@]2(C)[C@H]2C(=O)N(C)C(=O)[C@@H]32)cc1	.	.	i	3.7	10	10	4.2	.	-3.2
C/C(=N\NC(N)=O)c1cc(Cl)cc(Cl)c1O	.	-14	i	-2.7	-7	-2	-4.4	-6%	3.0
Nc1cc(=O)[nH]c(=S)n1-c1cccc(C(F)(F)F)c1	0.57	-1	.	9.8	.	.	.	1%	.
CCNc1nc(NCC)n2c(SCC(=O)Nc3ccc(NC(C)=O)cc3)nnc2n1	0.67	98*	i	-1.9	20	7	1.9	9%	0.0
CCOC(=O)c1cnn(-c2ncnc3sc(C)c(C)c23)c1N	0.72	-30	.	-0.8	.	.	.	11%	.

In the list so far, these contain a cyano group:
SMILES	Ecoli growth	ALR inh	FGF22 binding	HNF4A DNA FP	rRNA inh HTS	rRNA inh HTS OD600	rRNA inh HTS RFP	Vif A3G	MLL AF4-AF9 inh
N#Cc1cccc(-c2ccc3c(c2)[C@@H]2[C@@H](CCN2S(=O)(=O)c2ccccc2F)[C@H](CO)N3)c1	.	.	i	.	-36	-37	25	.	-1.2
CCc1csc(N2[C@@H](C#N)[C@H](c3ccc(-c4cccc(F)c4)cc3)[C@@H]2CO)n1	.	.	i	.	-5	-35	14	.	0.8

Following part
SMILES	Ecoli growth	ALR inh	FGF22 binding	HNF4A DNA FP	rRNA inh HTS	rRNA inh HTS OD600	rRNA inh HTS RFP	Vif A3G	MLL AF4-AF9 inh
COc1ccc(OC)c(-c2nnc3n2N=C(c2ccc(OC)c(OC)c2)CS3)c1	0.69	-3	i	0.5	-19*	-14*	5.6*	.	-0.8
CO[C@@H](CN(C)Cc1cc(F)ccc1F)[C@@H](C)CN([C@@H](C)CO)S(=O)(=O)c1ccc(C)cc1	.	.	i	.	-3	-15	-3.5	.	0.9
Cc1ccc(NC(=O)c2ccsc2)cc1NS(C)(=O)=O	0.69	-3	.	2.5	.	.	.	.	.
O=C(CCN1C(=O)c2ccccc2S1(=O)=O)Nc1cccc(F)c1	0.63	-15	i	-6.6	3	3	-0.6	-2%	-1.1
O=C(O)CCSc1ncnc2sc(-c3ccccc3)cc12	0.68	-3	i	-0.1	5	0	-0.7	.	9.5
COCC#Cc1ccc2c(c1)O[C@H](CN(C)CC1CCOCC1)[C@H](C)CN([C@@H](C)CO)S2(=O)=O	.	.	i	.	4	2	-4.4	.	-5.6
C[C@@H]1CCCCO[C@H](CN(C)S(=O)(=O)c2ccccc2)[C@@H](C)CN([C@H](C)CO)C(=O)c2cc(NC(=O)CCC(F)(F)F)ccc2O1	.	.	+	.	3	6	-2.7	.	-5.2
CC(C)n1c(=O)nc(-c2ccccc2)c2cc3c(cc21)OCO3	.	.	i	3.5	0	4	2.9	-2%	-3.4
CCCCNC(=S)NNC(=O)c1cc(-c2ccncc2)nc2ccccc12	0.7	25	i	0.5	-4	-1	-1.2	.	-0.4
O=[N+]([O-])c1cccc(CP(=O)(c2ccccc2)c2ccccc2)c1	0.72	.	i	3.1	9	9	-12	-12%	0.6
C[C@@H]1CN([C@@H](C)CO)C(=O)c2cc(C#CCN(C)C)cnc2O[C@H]1CN(C)Cc1cccc(C(=O)O)c1	.	.	i	.	0	12	-0.9	.	-0.8
Cc1ccc(S(=O)(=O)Nc2cccc3c2O[C@H](CN(C)Cc2ccc(C(=O)Nc4ccccc4N)cc2)[C@@H](C)CN([C@H](C)CO)C3=O)cc1	.	.	i	.	-3	-4	-0.6	.	2.3
O=C(C1CC1)N1CCCCN2[C@H](CO)[C@H](c3ccc(-c4cccc(F)c4)cc3)[C@H]2C1	.	.	i	.	-6	-9	3.1	.	-0.4
COCc1cn(CC[C@@H]2CC[C@H](NC(=O)Nc3ccc(OC)cc3)[C@H](CO)O2)nn1	.	.	i	.	3	3	-1.0	.	-1.2
Cc1ccccc1C(=O)Nc1nnc(SC(C)C)s1	0.61	-2	i	-1.9	0	6	-0.1	-7%	-0.5
COc1ccc(NC(=O)Nc2ccc3c(c2)C(=O)N([C@@H](C)CO)C[C@@H](C)[C@H](CN(C)C(=O)NC2CCCCC2)OCCCC[C@@H](C)O3)cc1	.	.	i	.	3	8	0.1	.	-1.5

Not all compounds are listed; count on the stated rates, not on these rows.
